PrP 5UTR inh = inhibition of PrP 5' UTR reporter expression; 0.35% of 340,000 active; cell-based PrP 5' UTR mRNA reporter, plate reader; inhibition, % (test concentration not listed);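 active = every replicate at 50% or more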;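 note: 0 = median of the neutral control wells; tested in H4 reporter cells; numbers are from one replicate; inactives centre near -14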
Bead autofluor = flagged as autofluorescent in microsphere protease counterscreen. 3.1% of 360,000 active. compound autofluorescence counterscreen, microsphere flow cytometry; active compounds read high. fluorescence intensity (concentration not given with the values);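 active = at least 3 SD above the mean of all compounds, about 16000 in these data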;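 note: 100 nL of 1 mM stock went into each well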
* marks the source's active call; other numbers are inactive results. Only part of the results is shown (hit frequency here may not be typical).

SMILES	PrP 5UTR inh	Bead autofluor
Cc1cccc(C(=O)O[C@@H]2[C@H](Cc3ccccc3)NS(=O)(=O)[C@H]3C[C@@H]4C=C[C@]23O4)c1	-8.1	3887
COc1cc(C(=O)O/N=C2/C=CC(=O)C(C)=C2C)cc(OC)c1OC	-14.8	4206
COc1ccc(NC2Oc3cc4c(cc3C(c3cc(OC)c(OC)c(OC)c3)C2C)OCO4)cc1 (stereo unspecified)	60.9*	3042
O=C(CCc1nc2ccccc2c(=O)[nH]1)N1CCN(S(=O)(=O)c2cc(Cl)ccc2Cl)CC1	-4.4	3663
CCOC(=O)c1ccc(NC(=O)c2nc[nH]c2C(=O)NCCCCNC(=O)c2[nH]cnc2C(=O)Nc2ccc(C(=O)OCC)cc2)cc1	19.1	3863
CN1OC[C@@H]2CN[C@H](c3cccc(-c4ccc(C#N)cc4)c3)C[C@@H]21	-3.7	4540
Cn1cc(S(=O)(=O)NC[C@H]2O[C@@H](n3ccc(=O)[nH]c3=O)[C@H](O)[C@@H]2O)cn1	23.7	3979
COc1ccc(Nc2nc(-c3c(C)nc4ncccn34)cs2)cc1	65.5*	2506
COC(=O)C12OCC34C(CC5C(C)=C(O)C(=O)CC5(C)C3C(O)C1O)OC(=O)C(OC(=O)/C=C(\C)C(C)C)C24 (stereo unspecified)	93.2*	3485
O=C1C=C(c2ccc(-c3ccccc3)c(F)c2)C[C@@H](c2ccc(Cl)cc2)C1	-1.3	2864
COC(=O)C1=C(c2ccc(F)cc2F)C[C@@H]2CC[C@H]1N2C(=O)N1CCC(O)CC1	5.3	2977
CSCCC(/C(O)=C(\C#N)c1nc2ccccc2[nH]1)N1C(=O)c2ccccc2C1=O (stereo unspecified)	-1.7	4501
Cc1cc(C)c(S(=O)(=O)/N=C2/C=C(Sc3ncn[nH]3)C(=O)c3ccccc32)cc1C	-16.8	2391
Cc1ccc(S(=O)(=O)Nc2ccccc2/C=N/c2nc3ccccc3n2C(C)C)cc1	-22.7	3771
S=C1NC[C@H](Cc2ccccc2)N1CC1CCN(CCCCc2ccccc2)CC1	-3.5	3743
Cc1ccc(NC(=O)/C=C/c2ccc(S(=O)(=O)N3CCOCC3)cc2)cc1S(=O)(=O)N(C)C	-21.9	4593
CC[C@H]1CN2CCC1C[C@@H]2[C@@H](O)c1ccnc2ccc(OC)cc12 (stereo partly specified)	-9.3	5315
CC(C)(C)OC(=O)C[C@@H]1C/C=C\C[C@@H](CC(=O)NCCO)C(=O)N2CCC[C@H]2COC1=O	-17.9	4179
C=C(COC(=O)CCC(=O)O)CC1CC(O)[C@]2(C)OC3CC4OC5C[C@]6(C)O[C@]7(C)CCC8OC9C[C@]%10(C)OC%11C(C)=CC(=O)OC%11CC%10OC9C[C@@H](C)C8OC7CC6O[C@]5(C)C/C=C\C4OC3CC2O1 (stereo partly specified)	-14.2	4008
CC1(C)C[C@H]2C3=CCC4[C@@]5(C)CC[C@H](O)[C@@](C)(CO)C5CC[C@@]4(C)[C@]3(C)C[C@@H](O)[C@@]2(CO)[C@@H](O)[C@@H]1O (stereo partly specified)	-10.1	3461
CCOc1ccc(Br)cc1S(=O)(=O)Nc1cccc(S(=O)(=O)N2CCOCC2)c1	-11.6	3800
COc1cc(N2CCC(O)CC2)ccc1Nc1nnc(Cl)c(Nc2ccccc2S(C)(=O)=O)n1	-5.0	4064
Cc1ccc(NC(=O)CO/N=C/c2ccccc2C)c(C)c1	-18.7	4408
CC(=O)OC12COC1CC(O)C1(C)C(=O)C(O)C3=C(C)C(O)CC(O)(C(OC(=O)c4ccccc4)C21)C3(C)C (stereo unspecified)	4.6	2971
COc1ccc(NC(=O)N(C)C[C@H]2Oc3ccc(NC(=O)c4ccncc4)cc3C(=O)N([C@H](C)CO)C[C@@H]2C)cc1	-14.3	2937
CN1C[C@@H]2[C@@H]3C(=O)N(Cc4ccccc4)C(=O)[C@@H]3[C@](Cc3ccccc3)(C1=O)N2C(=O)c1ccc(C(F)(F)F)cc1	-21.6	3899
c1ccc(NCCSc2nc3ccccc3s2)cc1	-25.4	3245
CC(=O)c1sc2c(c1OC(=O)c1ccc(Cl)cc1)c(=O)n(-c1ccccc1)c(=S)n2-c1ccccc1	8.3	3343
O=C1[C@@H]2[C@H](C(=O)N1CC(O)COCc1ccccc1)C1C=C[C@H]2C1 (stereo partly specified)	8.5	3276
O=C1CSC(=S)N1N=Cc1ccccc1O	-19.1	3746
Cn1c(CCCNC(=O)c2ccco2)nc2ccccc21	-12.1	3811
Cc1noc(C)c1NC(=O)Nc1ccc2c(c1)C(=O)N([C@H](C)CO)C[C@H](C)[C@@H](CN(C)C(=O)NC1CCCCC1)O2	-24.6	2960
c1ccc2c(c1)[IH]c1ccccc1-2	-11.5	5501
COC(=O)[C@]1(C)N[C@H](CN(C)C(=O)Nc2ccc(C)cc2)[C@@H]2C(=O)N(C)C(=O)[C@@H]21	-6.5	2964
CCSc1ccc([C@@H]2[C@H]3C(=O)N(C)C(=O)[C@H]3[C@]3(C(=O)OC)CCCCN23)cc1OC	-20.1	3502
COc1ccc([C@H]2CC(=O)C=C(c3ccc(Cl)cc3C)C2)cc1	0.6	4017
c1ccc(CC[C@@H]2CC[C@@H](CCc3ccccc3)N2)cc1	-0.6	3984
NC1=NC(=O)NC1(c1ccccc1)c1ccccc1	44.3	3111
COC(=O)C1=C(c2ccc(F)cc2OCc2ccccc2)C[C@@H]2CC[C@H]1N2C(=O)NCc1ccccc1Cl	-1.9	2890
COC(=O)C1=C(C)N(Cc2ccccc2)C(=S)N[C@H]1c1ccc(Br)cc1	-45.0	3977
Cc1c2c(nc3ccccc13)OCC2	3.0	4104
CCOC(=O)[C@H]1[C@H]2COc3ccccc3[C@@H]2N2C(=O)c3ccccc3NC(=O)[C@@]12C	-5.0	4004
COCC(=O)N1Cc2ccccc2-n2nncc2C1	-16.8	4212
COc1cccc(NC(=O)CN(C)C(C)C(=O)N2CCCC2)c1 (stereo unspecified)	-28.1	3688
O=C(NCCc1ccccc1)c1cccc(NC(=O)C2CCCC2)c1	-41.9	4032
O=C(Nc1cccc(C(=O)N2CCCCC2)c1)C1CCCC1	-12.0	3798
CCN(CC)C(=O)/C=C/c1ccccc1	-18.2	3493
O=c1[nH]ncc(N/N=C\c2cccs2)c1Cl	-3.0	2520
CCOC(=O)[C@H]1[C@H]2COc3cc(OC)ccc3[C@@H]2N2C(=O)CN(Cc3ccco3)C(=O)[C@@]12C	-12.9	3491
CC(C)C[C@H]1CNC(=S)N1CC1CCCN1C[C@H](Cc1ccccc1)N1C[C@H](Cc2ccc(O)cc2)N(CC2CCCCC2)C1=S (stereo partly specified)	-15.6	3916
C=C1C(=O)OC2C=C(CO)C3OC3C3OC3(C)CC(OC(=O)/C(=C/C)COC(C)=O)C12 (stereo unspecified)	-28.7	3141
CC(=O)C[C@@H](O)CC(=O)[C@H]1OC(=O)CCCCCCCCc2ccccc21	-44.8	3931
CCN(CC)C(=O)COc1ccc(/C(C)=N/NC(=O)c2ccccc2Br)cc1	-22.2	5302
O=C(C[C@@H]1C/C=C\C[C@H](Cc2ccc(F)cc2)C(=O)OCCNC1=O)NCCO	-26.2	3846
C=CC[C@@H](CC(=O)N[C@H](CO)Cc1ccccc1)C(=O)N[C@@H](COC(=O)[C@@H](CC=C)CC(=O)OC(C)(C)C)Cc1c[nH]c2ccccc12	-21.4	3730
CC(CC(C)(C)N1CC1)=NNC(=O)Nc1cccc2ccccc12	-6.5	3924
COC(=O)[C@@]12CCCCN1[C@H](c1ccc(-c3ccc(F)cc3)cc1)[C@H]1C(=O)N(C)C(=O)[C@H]12	-9.8	3554
O=C1NC[C@H](Cc2ccccc2)N(CC2CCN(CCc3ccccc3)CC2)C1=O	2.6	2922
CC(C)(C)OC(=O)N[C@H](C(=O)OC(C)(C)C)c1ccc(C(F)(F)F)cc1	-7.3	3509
COc1ccccc1NS(=O)(=O)c1cccc(C(=O)N/N=C/c2c(CO)cnc(C)c2O)c1	5.8	2971

More compounds.
SMILES	PrP 5UTR inh	Bead autofluor
CC(=O)OC1CCC2(C)C(CC(=O)C3C2CCC2(C)C(OC(C)=O)CCC32)C1 (stereo unspecified)	1.9	2810
CN(C)c1ccc(/C=N/N=C2/NC(=O)/C(=C/c3ccc([N+](=O)[O-])cc3)S2)cc1	62.5*	9497
Cc1ccc(C(=O)NC2CC3CCC(C2)N3C)cc1 (stereo unspecified)	-13.4	3677
C[C@@H](NC(=O)c1ncn(C)c1C(=O)N[C@H](C)c1ccccc1)c1ccccc1	-0.8	3757
CC12CCCC(C(C#N)C(N)=O)(C1)NC(=O)C2C#N (stereo unspecified)	-11.0	3019
CN1CC[C@]2(CCN3CCc4c(oc5ccccc45)[C@@H]3C2)N(C)C1=O	-20.1	5219
C[C@]12CCC3C(CC[C@@H]4C[C@H](O)CC[C@]34C)C1CCC2=O (stereo partly specified)	7.5	3855
O=C1C=C(c2cccc(OCc3ccccc3)c2)C[C@@H](c2ccc3c(c2)OCO3)C1	-9.1	3719
C=CC[C@@H](CC(=O)N[C@@H](CO)Cc1ccccc1)C(=O)NCCOC(=O)[C@@H](CC=C)CC(=O)OC(C)(C)C	-10.2	3965
C#CCN1C=CC(=O)[C@@H](O)[C@H]1c1ccccc1Br	-12.1	3083
CCOC(=O)N1C(=O)NC(=O)C1c1ccc(OC)cc1 (stereo unspecified)	-24.9	3939
Cc1cc(NC(=O)C(C)SCC(=O)Nc2cccc(S(=O)(=O)N3CCCCCC3)c2)no1 (stereo unspecified)	-20.1	3899
NS(=O)(=O)c1ccc(Cl)c(S(N)(=O)=O)c1	-11.4	4069
CCN(CC)CCNC(=O)c1ccc(NC(=O)c2ccc(S(=O)(=O)N3CCCC3)cc2)cc1	-3.2	4081
O=c1[nH]c(=O)n(C2CC(O)C(CO)O2)cc1Br (stereo unspecified)	-82.4	3622
CCCCN1CC(COCc2ccccc2)Oc2cccc(Oc3ccccc3)c2S1(=O)=O (stereo unspecified)	-9.3	2807
COC(=O)C1=C(c2ccc(F)cc2OCc2ccccc2)C[C@@H]2CC[C@H]1N2C(=O)NCc1ccc(N(C)C)cc1	-4.8	3132
COCC(C)OC(=O)/C(C#N)=C\c1coc2ccc(C)cc2c1=O (stereo unspecified)	-35.6	2625
CCC(=N\NC(=O)COc1ccccc1OC)/C(CC)=N/NC(=O)COc1ccccc1OC	3.0	6333
COc1ccc(CC(=O)N/N=C(\C)c2cccs2)cc1OC	-13.3	6028

Entries of single compounds as entered above:
C[C@]12CCC3C(CC[C@@H]4C[C@H](O)CC[C@]34C)C1CCC2=O (stereo partly specified) in the list: PrP 5UTR inh: 7.5; Bead autofluor: 3855
CCC(=N\NC(=O)COc1ccccc1OC)/C(CC)=N/NC(=O)COc1ccccc1OC in the list: PrP 5UTR inh: 3.0; Bead autofluor: 6333
NS(=O)(=O)c1ccc(Cl)c(S(N)(=O)=O)c1 in the list: PrP 5UTR inh: -11.4; Bead autofluor: 4069

3 entries drawn at random from those above:
SMILES	PrP 5UTR inh	Bead autofluor
COC(=O)C1=C(c2ccc(F)cc2OCc2ccccc2)C[C@@H]2CC[C@H]1N2C(=O)NCc1ccccc1Cl	-1.9	2890
COCC(=O)N1Cc2ccccc2-n2nncc2C1	-16.8	4212
CSCCC(/C(O)=C(\C#N)c1nc2ccccc2[nH]1)N1C(=O)c2ccccc2C1=O (stereo unspecified)	-1.7	4501

Next part:
SMILES	PrP 5UTR inh	Bead autofluor
N#C/C(=C\c1ccc(O)c(O)c1)C(=O)Nc1ccccc1	0.2	5657
COc1ccc(/C=N/NC(=O)C2C3CCCCC32)cc1OC (stereo unspecified)	9.1	4028
CC(Cc1ccccc1)N1CCCC1=O (stereo unspecified)	-7.7	3937
C[C@@H](CSc1ccc(Br)cc1)CN1CC[C@H](NC(=O)OCc2ccccc2)CCC1=O	-21.9	3910
NC(=O)C1=CC2C3C=CC2(O)C(=O)OC3O1 (stereo unspecified)	-10.9	3975
CCCC(C(=O)O)N1C(=O)/C(=C2\C(=O)N(C)c3ccccc32)SC1=S (stereo unspecified)	-8.2	2146
O=C(N/N=C\c1cccc(F)c1)c1ccc(-c2ccccc2)cc1	-11.0	5880
O=C(C[C@@H]1C/C=C/CC[C@@H](Cc2ccc(F)cc2)C(=O)O[C@H](c2ccccc2)CNC1=O)NCCO	-18.1	4103
C[C@H](CO)N1C[C@H](C)[C@H](CN(C)Cc2ccccc2)Oc2c(NC(=O)Nc3ccc(F)cc3)cccc2C1=O	-16.1	3750
C#CCOCCOCCOCCNc1nc(N2CCN(C(=O)[C@H](CCCN=C(N)N)n3cc(C(N)[C@H](C)CC)nn3)CC2)nc(N2CCN(C(=O)[C@H](CCCN=C(N)N)n3cc(C(N)[C@@H](C)CC)nn3)CC2)n1 (stereo partly specified)	-18.7	3988
c1ccc(COc2ncnc3c2ncn3CCCNCc2ccccn2)cc1	-11.4	3163
Nc1ccn(C2OC(COP(=O)(O)O)C(O)C2O)c(=O)n1 (stereo unspecified)	42.8	2964
O=C(N/N=C/c1cccnc1)c1cc(-c2ccc(Br)cc2)nc2ccccc12	-10.3	4533
CCOC(=O)[C@@H]1[C@H]2COc3ccc(Br)cc3[C@@H]2N2C(=O)N(c3ccc(Br)cc3)C(=O)[C@@]12C	-16.2	3884
O=C(COC(=O)/C=C/c1cccc(Cl)c1)NC1CCCC1	1.2	2760
CC(=O)Nc1cccc(OCc2cccc([N+](=O)[O-])c2)c1	-26.8	3263
Cc1nc(N2CCN(S(=O)(=O)c3ccccc3)CC2)c2c3c(sc2n1)CC(C)CC3 (stereo unspecified)	-21.9	11975
CCC(=O)[C@@]1(C)[C@H](C)C[C@H]2[C@@H]3CCC4=CC(=O)C=C[C@]4(C)[C@H]3[C@@H](O)C[C@@]21C	-12.8	6536

As entered above:
C[C@@H](CSc1ccc(Br)cc1)CN1CC[C@H](NC(=O)OCc2ccccc2)CCC1=O | PrP 5UTR inh: -21.9
O=C(C[C@@H]1C/C=C/CC[C@@H](Cc2ccc(F)cc2)C(=O)O[C@H](c2ccccc2)CNC1=O)NCCO | Bead autofluor: 4103
COc1ccc(/C=N/NC(=O)C2C3CCCCC32)cc1OC (stereo unspecified) | PrP 5UTR inh: 9.1
